# Bioassay records from PubChem BioAssay.
# VCAM-1 rise = enhancers of VCAM-1 display on endothelial cells, cell-based, plate reader, pooled HUVEC, TNFa stimulus (AID 455) | actives 0.2% (n = 10,000) | HUVEC TNFa-induced VCAM-1 immunofluorescence, plate reader; numbers were filed only for top-ranked candidate wells | augmentation, % at 5 µM;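 active means a compound raising TNF-alpha-driven VCAM-1 surface staining, with its hit status upheld on visual or statistical review; inactive means the rest, including hits rejected on review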;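 further: 0% = TNFa with vehicle and 100% = strongest image-checked hit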
# Proteasome disasm = inhibitors of ATP-driven 26S proteasome dissociation, primary screen, biochemical, bead-based flow cytometry, GFP-tagged proteasome; anti-FLAG beads, GFP-proteasome disassembly; inhibition of disassembly, % (concentration not given with the values); actives 0.2% (n = 24,000);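 active means above 40%; inconclusive means likely self-fluorescent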;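 further: plate controls were ATP control with full disassembly for no effect and ATP-gamma-S intact proteasomes for full effect; higher percent means more bead fluorescence retained so stronger block of disassembly; stock transfer was 100 nL into about 10 µL; wells with too few beads may also be inconclusive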
# The depositor's hits bear a star; i = inactive; ? = inconclusive; nt = not tested or not shown. Not all compounds are listed; the hit share may differ from the screen's.
VCAM-1 rise | Proteasome disasm | canonical_smiles
nt | -1.6 | COc1ccc(Cl)cc1-c1nc(-c2ccc(Br)o2)no1
nt | -0.6 | COc1cccc(C2NC(CCSC)(C(=O)O)C3C(=O)N(C(C)C)C(=O)C23)c1O (stereo unspecified)
i | -2.2 | O=c1c2c(-c3ccccc3)csc2nc2n1CCC2
nt | 0.8 | CCOc1ccc(NC(=O)N2CCC(n3c(=O)[nH]c4ccccc43)CC2)cc1
nt | 1.7 | O=C(NCCc1ccccc1)C1CCCN(S(=O)(=O)c2cccc3nonc23)C1 (stereo unspecified)
i | -31 | FC(F)(F)c1cc(-c2ccco2)nc(NCc2ccco2)n1
nt | -0.3 | CC(=O)N1c2c(cc(Br)cc2S(=O)(=O)NCc2ccc3c(c2)OCO3)CC1C (stereo unspecified)
nt | 0.6 | Cc1ccc(-n2c(=O)[nH]c3c(C(N)=O)nc(-c4ccc(C)o4)nc32)cc1
nt | 0.8 | O=C(NC1CCCCC1)c1cnn2c(C(F)(F)F)cc(-c3ccco3)nc12
i | -1.0 | CN(C)C(=O)COc1ccc2cc(-c3ccccc3)c(=O)oc2c1
nt | 0.2 | O=C(CSc1nccn1-c1ccccc1)N1CCc2ccccc21
nt | 0.2 | Cc1ccccc1-c1nnc(SCc2ccccc2F)o1
nt | 0.1 | COc1cccc(-c2nnc(SCC(=O)N3CC(C)CC(C)C3)o2)c1 (stereo unspecified)
i | 2.0 | O=c1c(-c2ccc(F)cc2)coc2c3c(ccc12)OCCO3
nt | 3.4 | NS(=O)(=O)c1ccc(CCNC(=O)C2CCCN2C(=O)OCc2ccccc2)cc1 (stereo unspecified)
nt | 102* | CCCN1Cc2cccc(C(=O)Nc3ccc(CN4CCCC4)cc3)c2C1=O
i | -0.9 | Cc1ccc(C2c3sc(=O)[nH]c3SC3C(=O)NC(=O)C32)cc1 (stereo unspecified)
nt | 0.8 | COc1cccc(OC)c1/C(O)=C(\C#N)c1nc2ccccc2[nH]1
i | -1.6 | Cc1nc2ccc(N3C(=O)CCC3=O)cc2[nH]1
nt | 0.8 | CCOC(=O)NC(=O)CSc1nc2ccc(OCC)cc2[nH]1
i | -0.8 | CCOC(=O)c1c(C)n(OCc2ccccc2)c2ccc3c(no[n+]3[O-])c12
i | 3.2 | Cc1ccc(C)c(C(=O)NC2CC(C)(C)NC(C)(C)C2)c1
i | -0.6 | CCOc1cc(-c2nc3ccccn3c2NCC2CCCO2)ccc1O (stereo unspecified)
nt | 0.2 | COc1ccc(C(=O)NC(C)c2nc3ccccc3[nH]2)cc1OC (stereo unspecified)
nt | 0.3 | COc1ccc(-n2nc(C(=O)NCc3ccco3)c3c4ccccc4n(C)c3c2=O)cc1
nt | 1.2 | COc1ccc(NC(=O)CSc2nc3c(c(=O)n2-c2ccc(C)cc2)SCC3)c(OC)c1
nt | -5.1 | Cc1ccc(-c2noc(CN(C(=O)c3cccc(Br)c3)C(C)C)n2)cc1
i | 4.9 | COc1cccc(N2CCN(c3ncnc4c3[nH]c3ccc(F)cc34)CC2C)c1 (stereo unspecified)
nt | 1.2 | O=C(Nc1ccc2c(c1)OCCO2)C1CCN(S(=O)(=O)c2cccs2)CC1
nt | 1.2 | O=C(Cn1cnc2c(nnn2Cc2ccc(F)cc2)c1=O)N1CCCc2ccccc21
nt | -0.8 | CN1CCN(CCNC(=O)c2cc3c(=O)n(C)c4ccccc4c3n2C)CC1
i | 1.9 | COc1ccc(-c2nsc(SCC(=O)Nc3cc(C)on3)n2)cc1
i | 0.1 | COc1ccc2ccccc2c1CN1CCCC(CO)C1 (stereo unspecified)
nt | -0.2 | Cc1ccc(S(=O)(=O)c2c(C)nn(C(C)(C)C)c2OC(=O)c2ccco2)cc1
i | 0.3 | O=C(CCSc1nnc(-c2ccncc2)o1)Nc1ccccc1
nt | -1.3 | O=C(NCCCN1CCCC1=O)c1cccc(N2CCCC2=O)c1
nt | 0.9 | CC(=O)N1C(C(=O)O)CSC1c1ccc(C)cc1 (stereo unspecified)
nt | 0.6 | Cc1c(C(=O)N2CCN(C)CC2)oc2ccc(S(=O)(=O)N3CCOCC3)cc12
i | 3.0 | CCOC(=O)C1CCN(CC(=O)Nc2c(C(=O)OC)[nH]c3ccc(Cl)cc23)CC1
i | 0.5 | CC(NC(=O)c1cn(C)c2ccc(S(=O)(=O)N3CCCC3)cc2c1=O)c1ccc2c(c1)OCCO2 (stereo unspecified)
i | 1.2 | COc1cc(NC(=O)c2ccc(COCC(F)(F)F)o2)cc(OC)c1OC
nt | -1.9 | CCOc1ccc(OCC)c(NC(=O)C2CCCN2S(=O)(=O)c2cccc3cccnc23)c1 (stereo unspecified)
i | 0.8 | COc1cccc(N2CCN(CC(=O)Nc3nnc(-c4ccccc4)s3)CC2)c1
i | -2.6 | O=C(NC1CCCCC1)C(c1ccco1)N(Cc1cccnc1)C(=O)C1COc2ccccc2O1 (stereo unspecified)
i | 1.8 | COc1cc2c(cc1NC(=O)COC(=O)Cn1cnc3ccccc31)oc1ccccc12
i | 0.5 | C=CCN(CC=C)C(=O)Nc1cc(Cl)ccc1OC
nt | 2.2 | Cc1ccccc1S(=O)(=O)Cc1ccc(C(=O)NCCCOC(C)C)o1
nt | 0.9 | CCCS(=O)(=O)N1CCCC(C(=O)NCc2ccc3c(c2)OCO3)C1 (stereo unspecified)
nt | -1.7 | CCCCN(C)CCCNC(=O)C1CC(=O)N(Cc2ccc(OC)cc2)C1 (stereo unspecified)
nt | 0.8 | COC(=O)c1ccccc1N1C(=O)C2C(C1=O)C1C=CC2C12CC2 (stereo unspecified)
i | 0.7 | COC(=O)c1c(NC(=O)c2ccc(S(=O)(=O)N3CCOCC3)cc2)sc2c1CCN(C)C2
i | -4.2 | COc1ccc(-c2nnc(SCC(=O)Nc3ccc(Cl)cc3)n2C)cc1
i | -5.8 | CCOC(=O)CC1(CC(=O)OCC)NC(=O)c2c(C)sc(C(=O)OCC)c2N1
i | 0.5 | CCOC(=O)N1CCC(Nc2ncnc3c2cnn3-c2ccc(C)cc2C)CC1
nt | -0.1 | O=C1C(=O)N(CCO)C(c2ccccc2)/C1=C(\O)c1ccccc1 (stereo unspecified)
i | 2.4 | Cc1ccccc1NC(=O)C1CCN(c2cnccn2)CC1
nt | -0.2 | COc1cc(C(=O)NCc2nnc(SCC(=O)N3CCC(C)CC3)o2)cc(OC)c1OC
nt | 1.4 | CCOc1ccc(-c2nnc3ccc(SCC(=O)NCc4ccco4)nn23)cc1
nt | 1.1 | O=C1CN(CC(=O)N2CCCCC2)c2ccccc2O1
nt | 5.9 | Cc1cccc(-n2c(=O)[nH]c3c(C(N)=O)nc(C(C)C)nc32)c1

# Looked up one by one from the entries so far:
VCAM-1 rise | Proteasome disasm | canonical_smiles
nt | -0.2 | COc1cc(C(=O)NCc2nnc(SCC(=O)N3CCC(C)CC3)o2)cc(OC)c1OC
nt | 2.2 | Cc1ccccc1S(=O)(=O)Cc1ccc(C(=O)NCCCOC(C)C)o1
nt | 5.9 | Cc1cccc(-n2c(=O)[nH]c3c(C(N)=O)nc(C(C)C)nc32)c1
nt | -1.3 | O=C(NCCCN1CCCC1=O)c1cccc(N2CCCC2=O)c1

# (cont.)
VCAM-1 rise | Proteasome disasm | canonical_smiles
i | -3.1 | COC(=O)CSc1nnc(-c2ccncc2)o1
nt | 0.2 | CCOC(=O)C1CCN(C(C(=O)NC2CCCCC2)c2ccc(OC)cc2)CC1 (stereo unspecified)
nt | -0.8 | CSc1nnc2c(n1)OC(c1ccc(C(=O)O)cc1)N(C(C)=O)c1ccccc1-2 (stereo unspecified)
i | 0.5 | CC(=O)Nn1c(C)nnc1-n1nc(C)cc1C
nt | 0.4 | CC1CCC(NC(=O)CN2CCCN(Cc3ccc(F)cc3Cl)C2=O)CC1 (stereo unspecified)
nt | ? | CCn1c(C(=O)NCc2cccnc2)cc2sc(Cl)cc21
nt | 5.7 | CCCCN(CCCNC(=O)CN1C(=O)COc2ccccc21)c1ccccc1
i | -0.5 | O=C(NC1CC1)c1ccc(S(=O)(=O)NCC2CCCCC2)cc1
i | 0.5 | Cc1ccc(NC(=O)CSc2nnc(CCCCCNC(=O)OC(C)(C)C)o2)c(C)c1
nt | -0.2 | O=C(O)CCC(=O)N1CCc2cc(S(=O)(=O)N3CCC(Cc4ccccc4)CC3)ccc21
i | -1.7 | O=C1NC(=O)C2(CCC(C(=O)O)C2)N1 (stereo unspecified)
i | -0.8 | COC(=O)CCN1CCC(C(N)=O)CC1
i | -1.0 | COC(=O)c1sccc1NC(=O)c1ccncc1
i | -1.2 | Cc1ccc(-c2cc(C(=O)N3CCCC3)no2)cc1
nt | -1.5 | COc1ccc2nc(SCC(=O)Nc3ccc4c(c3)OCCO4)[nH]c2c1
i | 0.5 | O=C(O)CCNC(=O)c1ccccc1
nt | -0.9 | COc1ccc(OC)c(CNC(=O)C2CCN(S(=O)(=O)N3CCCC3)CC2)c1
nt | -1.2 | Cc1cccc(CSC2=NCCN2C(=O)C2CC2)c1
nt | 2.4 | COc1ccc(-c2cc(C(=O)Nc3c(C)nn(Cc4ccccc4Cl)c3C)no2)cc1
i | 38 | CCOC(=O)c1[nH]c(CSc2nnc(-c3ccc(OC)cc3)o2)c(C(=O)OCC)c1C
i | -0.6 | O=c1c2cc(N3CCOCC3)ccc2[nH]c(=S)n1CCCN1CCCC1
i | 7.5 | COc1ccc(-n2c(Cc3cccn3C)nnc2SCC(=O)Nc2cccc(C)c2C)cc1
nt | -3.0 | CCC(C(=O)NCCN1CCN(C)CC1)n1c(C)c2cnn(-c3ccccc3)c(=O)c2c1C (stereo unspecified)
nt | 3.6 | CCn1c2ccccc2c2nnc(SCc3ccccc3)nc21
i | 0.1 | CCN1CCN(C(=O)c2cc3c(=O)n(C)c4ccccc4c3n2C)CC1
nt | 2.1 | Fc1ccc(-c2nnc3ccc(N4CCc5ccccc5C4)nn23)cc1
i | 2.4 | O=C(Nc1ccccc1N1CCOCC1)c1ccc2ccccc2n1
nt | 2.3 | CCN(CC)c1ccc(NC(=O)c2ccc(NC(=O)C3CCCO3)cc2)c(C)c1 (stereo unspecified)
i | 0.8 | CCOC(=O)c1ccc(CNC(=O)C(Cc2c[nH]c3ccccc23)NC(C)=O)o1 (stereo unspecified)
nt | -0.4 | O=C(Nc1ccc(OC(=O)c2ccncc2)cc1)c1ccncc1

# Laid out differently: entries from further up.
# Below each SMILES: VCAM-1 rise, Proteasome disasm
Cc1cccc(CSC2=NCCN2C(=O)C2CC2)c1
→ nt, -1.2
Cc1ccc(S(=O)(=O)c2c(C)nn(C(C)(C)C)c2OC(=O)c2ccco2)cc1
→ nt, -0.2
CCOc1ccc(OCC)c(NC(=O)C2CCCN2S(=O)(=O)c2cccc3cccnc23)c1 (stereo unspecified)
→ nt, -1.9
O=C(Nc1ccccc1N1CCOCC1)c1ccc2ccccc2n1
→ i, 2.4

# The list continues:
VCAM-1 rise | Proteasome disasm | canonical_smiles
nt | 1.4 | CCOC(=O)c1cc2c(=O)n3ccccc3nc2n(CCCOC)c1=NC(=O)c1cccnc1
nt | -0.6 | O=C(CSc1nnc(CNC(=O)c2cccs2)o1)NC1CCCCC1
nt | -0.4 | COc1ccc(Cn2nnc3c(=O)[nH]c(C(=O)NCCc4ccc(F)cc4)nc32)cc1OC
nt | -0.1 | O=C(C1CC(=O)N(C2CCCC2)C1)N1CCC(Cc2ccccc2)CC1 (stereo unspecified)
nt | -1.5 | O=C(O)C1C2C=CC(C2)C1C(=O)NCc1ccoc1 (stereo unspecified)
nt | -0.2 | Cc1ccc(-n2c(Cc3cccn3C)nnc2SCC(=O)NC2CCCCC2)cc1
nt | -3.1 | CC(=O)Cc1nsc(NC(=O)C2Cc3ccccc3C(=O)O2)n1 (stereo unspecified)
i | -2.1 | CC(=O)N(C(C)=O)c1c(C#N)c(C)n(-c2ccccc2)c1C(=O)c1ccccc1
i | -1.3 | O=S1(=O)CC(N2CCCCC2)C(N2CCCCC2)C1 (stereo unspecified)
i | 1.0 | O=C(O)c1cc(=O)c2c(OCC(O)COc3cccc4oc(C(=O)O)cc(=O)c34)cccc2o1
nt | 1.4 | Cc1ccc(CS(=O)(=O)CCC(=O)NCCCOC(C)C)cc1
i | -0.1 | Cc1c(NC(=O)c2coc(=O)c(Br)c2)c(=O)n(-c2ccccc2)n1C
nt | -0.8 | COc1ccc(C2CCCN2C(=O)Nc2cccc(C(C)=O)c2)cc1OC (stereo unspecified)
nt | -0.9 | Cc1c(C(=O)N2CCN(c3ccccn3)CC2)sc2ncnc(N3CCN(c4ccccc4)CC3)c12
i | 1.1 | COCCn1c(SCC(=O)Nc2ccc3c(c2)OCCO3)nc2c(c1=O)SC(C)C2 (stereo unspecified)
nt | -0.1 | Clc1ccc2nc(N3CCN(c4ccccc4)CC3)sc2c1
nt | 0.6 | COc1ccccc1C1/C(=C(/O)c2ccccc2)C(=O)C(=O)N1CCO (stereo unspecified)
nt | 0.5 | CCN(CC)CCNC(=O)c1ccc2c(=O)n(CCc3ccccc3)c(=O)[nH]c2c1
i | 1.0 | CN1CCN(C(=O)c2ccccc2N(Cc2ccccc2)S(C)(=O)=O)CC1
nt | -0.5 | COc1ccc(NC(=O)c2cc3c(=O)n(C)c4ccccc4c3n2C)cc1OC
nt | -1.1 | COc1ccccc1N1CCN(C(=O)c2cc(-c3ccc(Cl)cc3)on2)CC1
i | -1.5 | CC/C(O)=C(/C#N)c1nnc2n1CCCCC2
i | 0.3 | CCOCCCNC(=O)C1CCC(CNS(=O)(=O)c2cccc3nsnc23)CC1 (stereo unspecified)
nt | -1.7 | CC1CCN(S(=O)(=O)c2ccc(F)c(C(=O)O)c2)CC1
